Assay outcomes as filed in PubChem.
XIAP displacement – XIAP antagonists, biochemical, IAP family, fluorescence polarization (AID 1018); XIAP BIR domain, fluorescence polarization peptide displacement; higher % means a stronger effect; displacement, % at 20 µM; hits with a dose series show IC50 in µM; 200,000 tested, 0.007% active; in the data active = displacement above about 50%; also: a part of the inactive calls stands beside numbers as strong as those of hits
Ins promoter up – MIN6 insulin promoter up-regulation; MIN6 insulin promoter-GFP reporter, high-content imaging; stronger effect = higher value; z-score at 5 µM; 190,000 tested, 0.3% active; AID 1625;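 active = z-score above 3 at 5 µM with at least 500 cells counted in the well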
WT yeast gro inh – growth inhibition of WT yeast, mitochondrial fusion screen; mitochondrial fusion phenotypic screen, WT strain; inhibition, % at 10 µM; 190,000 tested, 2.1% active; in the data active = inhibition above about 58%; tested in S. cerevisiae
MT stabilize HCS – stabilizes microtubules in HeLa cells | HeLa tubulin immunostaining HCS, 24 h; share of cells brighter than vehicle mean+2SD | % tubulin-high responders, % at 10 µM | 200,000 tested, 0.83% active | AID 2205;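 active = plate Z-score above 3 for both tubulin-high and condensed-nucleus cell shares, with cell loss under 80%, at 10 µM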;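 also: anti alpha tubulin signal scored within the nucleus-defined area of each cell; some results filed as inactive read as strong as hits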
Lipid droplet – hepatic lipid droplet formation modulation | AML12 mouse hepatocytes, oleate lipid droplets, BODIPY imaging | inhibition, % at 6.5 µM | 240,000 tested, 0.4% active | AID 1656;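 active = lipid droplet intensity inhibited by at least 50%, with more than 500 cells counted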
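Material – AML12 mouse liver cells · Also added – oleate loading, 100 µM · Compound dosing – 6.5 µM single-point dosing · Times – overnight treatment with compound plus oleate · Measured by – fluorescence imaging, 20x objective, two fields per well · Read-out – percent inhibition of filter-corrected integrated lipid droplet intensity per well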
Dynein transport – dynein cargo transport inhibition | 3617.4 mouse cells, GR-EGFP nuclear translocation imaging; test concentration mostly 20 µM; stimulated with dexamethasone, 1 µM; stronger effect = lower value | z-score, hits read low | 220,000 tested, 0.47% active;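 active = plate z-score of nuclear minus cytoplasmic receptor signal below a set negative limit, without overly bright fluorescence or cell loss, cut at about -3.5 in these data, passing the limit was not always enough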;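 also: z-score of nuclear minus cytoplasmic ring GR-EGFP intensity difference per well; some compounds called inactive have numbers as strong as hits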
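medium = tetracycline-free induction medium containing charcoal-stripped FBS | also added = 1.0 µM final dexamethasone stimulus | schedule = 48 h induction, 1 h compound, 30 min dex at 37 °C | technique = fixed, Hoechst-stained cells imaged at 10x for EGFP | measure = GR-EGFP nuclear translocation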
Autophagy mod – modulators of autophagy | MEF GFP-LC3 puncta imaging; test concentration mostly 10 µM | calls only at 10 µM (by protocol) | 190,000 tested, 0.98% active | AID 463193;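 active = percentage of spot-positive cells more than 3 SD above its plate mean, without a fluorescence outlier flag or 80% toxicity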;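 also: spot-positive cell cutoff set from DMSO-treated cells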
ER stress rescue – protection against thapsigargin-triggered cell killing – 384-well, CSM14.1, ATP luminescence, primary screen (AID 1222) | CSM14.1 thapsigargin-induced death rescue, ATP luminescence; higher % means a stronger effect | 190,000 tested, under 10 active | cellular ATP content (survival), % at 20 µM; hits with a dose series show EC50 in µM;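 active = EC50 below 50 µM in the dose-response confirmation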;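 also: death triggered by thapsigargin at about 15 µM added after 2 h compound pretreatment; cell ATP read after overnight thapsigargin exposure of roughly 18 to 22 hours; normalized against plate controls of thapsigargin alone and 5% DMSO vehicle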
WT yeast gro inh mutant strain – second read-out of WT yeast gro inh, no call of its own (marks repeat the call); inhibition, %; mitochondrial fusion phenotypic screen, mutant strain inhibition
Dynein transport cytoplasmic EGFP – recorded beside Dynein transport, whose call it bears; z-score; measured here: cytoplasmic GR-EGFP intensity; stronger effect = higher value
Dynein transport nuclear GR-EGFP – further read-out of Dynein transport, marked with its call; z-score; measured here: nuclear GR-EGFP intensity;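 lower value marks the stronger effect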
Dynein transport cell count – further read-out of Dynein transport, marked with its call; z-score; measured here: cell count per field
Ins promoter up cell count – further read-out of Ins promoter up, marked with its call; cell count; measured here: cytotoxicity, nuclei count;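 total cells summed across four imaged fields per well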
Lipid droplet cells 6.5 µM – also measured in Lipid droplet; calls as there; cell count; measured here: cell count, cytotoxicity flag;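 cells counted across two imaged fields per well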
MT stabilize HCS Hoechst-high % – also measured in MT stabilize HCS; calls as there; % Hoechst-high responders; measured here: nuclear condensation Hoechst responders;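 share of cells brighter than vehicle mean plus two SD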
MT stabilize HCS cytotoxicity % – second read-out of MT stabilize HCS, no call of its own (marks repeat the call); toxicity, %; measured here: cytotoxicity by cell density;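 0% = mean cell density of plate MIN control wells and 100% = no cells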
Autophagy mod cell loss 18 h – also measured in Autophagy mod; calls as there; toxicity, %; measured here: cell loss, nuclei count;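 cell loss after 18 h compound exposure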
The depositor's hits bear a star; i = inactive; . = no result given; + = active, no number. A portion of the library, so the mix of outcomes need not match the whole.

SMILES | XIAP displacement | Ins promoter up | Ins promoter up cell count | WT yeast gro inh | WT yeast gro inh mutant strain | MT stabilize HCS | MT stabilize HCS Hoechst-high % | MT stabilize HCS cytotoxicity % | Lipid droplet | Dynein transport | Dynein transport cytoplasmic EGFP | Dynein transport nuclear GR-EGFP | Dynein transport cell count | Autophagy mod | Autophagy mod cell loss 18 h | ER stress rescue | others
COc1ccc(CCNc2ccncn2)cc1 | -1.8% | -0.66 | 1500 | 1.9 | -9.0 | 3.6 | 1.9 | 9.8 | . | -0.377 | -0.202 | -0.815 | 0.514 | i | 4.7 | -1.0%
CCN(CC)CCOc1ccc2c(c1)C(=NO)c1cc(OCCN(CC)CC)ccc1-2 | -6.0% | -2.45 | 1004 | -9.6 | 1.0 | 3.4 | 1.3 | 22.6 | . | 1.03 | 3.74 | 1.47 | -5.24 | + | 39.6* | -1.0%
CC(C)NC(=O)CC(=O)N/N=C/c1ccc(Br)cc1 | 1.1% | 0.1 | 1402 | -7.9 | -7.7 | 3.7 | 1.5 | 8.2 | . | 0.393 | -0.212 | 0.526 | 0.239 | i | 18.0 | 28.5%
CCOC(=O)c1cnc2c(N=Nc3ccccc3)c(N)nn2c1N | -2.7% | -0.22 | 1519 | 2.1 | -0.6 | 1.3 | 1.0 | 9.5 | . | 0.659 | -0.206 | 0.979 | -0.061 | i | 22.0 | -1.8%
COC(=O)c1ccc(C(=O)OC)c(NC(=S)N2CCN(c3ccccc3)CC2)c1 | -3.2% | -0.01 | 1529 | 6.0 | 1.8 | 2.2 | 1.5 | 8.1 | . | 1.54 | -0.179 | 1.03 | 0.577 | i | 17.6 | -6.2%
COc1ccc(/C=C/c2ccncc2)cc1 | -0.1% | -0.62 | 1141 | 19.1 | 20.2 | 3.3 | 1.6 | 2.8 | . | 0.454 | -0.0369 | 0.641 | -1.82 | i | 2.5 | 0.2%
COc1ccc(/C=N/Nc2nonc2N)cc1 | -3.7% | 0.25 | 1550 | 2.4 | -0.3 | 4.4 | 2.6 | 11.2 | . | 1.04 | -0.236 | -0.446 | -0.828 | i | -0.4 | -2.8%
NNC(=O)C=C1CCN(c2ncc(C(F)(F)F)cc2Cl)CC1 | -8.4% | 0.54 | 1931 | 6.3 | 17.2 | 3.3 | 1.8 | 4.8 | -6.9 | 0.0113 | -0.212 | -0.299 | -0.536 | i | 15.9 | -1.1% | Lipid droplet cells 6.5 µM=617
COc1ccc(CN2CC(C(=O)NCCC3=CCCCC3)CC2=O)cc1 (centres undefined) | -4.1% | -0.22 | 1626 | 18.4 | -1.6 | 1.5 | 1.1 | 3.6 | . | -0.69 | -0.0938 | -0.278 | 0.602 | i | -0.2 | -0.7%
N=c1c2c(-c3ccccc3)c(-c3ccccc3)n(Cc3ccccc3)c2ncn1CCCO | -4.3% | -0.73 | 710 | -6.2 | -11.1 | 3.6 | 2.6 | 1.1 | . | 2.59 | 2.28 | 1.33 | -6.07 | + | 9.4* | -0.2%
COc1ccc(-c2c(C)nn(Cc3ccccc3)c2N)cc1 | -7.6% | -0.87 | 1444 | 8.9 | 3.8 | 2.9 | 2.2 | 5.5 | . | -0.599 | -0.234 | -0.109 | 0.541 | i | 4.8 | -1.2%
CCOc1cc(CNCc2cccs2)cc(Br)c1OC | 3.0% | 1.42 | 1437 | -9.9 | 6.5 | 1.8 | 1.7 | 8.2 | . | -0.371 | -0.196 | 0.212 | 0.427 | i | -22.7 | -1.7%
O=C(Nc1cccc(-c2nc3ccccc3s2)c1)c1ccc2c(c1)OCO2 | -6.0% | -0.27 | 1599 | 8.0 | -0.8 | 1.8 | 1.5 | 6.1 | . | 0.28 | -0.196 | 0.827 | -0.461 | i | -33.9 | -1.0%
Cc1cc(C)n(-c2cc(N3CCN(C(=O)c4cccc(Br)c4)CC3)ccc2[N+](=O)[O-])n1 | -6.5% | 0.34 | 1459 | -5.4 | -3.8 | 2.0 | 1.5 | 9.4 | . | -0.252 | -0.19 | -0.522 | 0.265 | i | -0.1 | 8.0%
O=C(Nc1cccc(Cl)c1Cl)c1snnc1-c1ccccc1 | -3.7% | -0.46 | 1401 | 5.6 | -4.9 | 1.6 | 1.6 | 3.9 | . | . | . | . | . | i | 1.4 | 3.4%

Retrieved by compound from the entries so far:
SMILES | XIAP displacement | Ins promoter up | Ins promoter up cell count | WT yeast gro inh | WT yeast gro inh mutant strain | MT stabilize HCS | MT stabilize HCS Hoechst-high % | MT stabilize HCS cytotoxicity % | Lipid droplet | Dynein transport | Dynein transport cytoplasmic EGFP | Dynein transport nuclear GR-EGFP | Dynein transport cell count | Autophagy mod | Autophagy mod cell loss 18 h | ER stress rescue | others
CCOC(=O)c1cnc2c(N=Nc3ccccc3)c(N)nn2c1N | -2.7% | -0.22 | 1519 | 2.1 | -0.6 | 1.3 | 1.0 | 9.5 | . | 0.659 | -0.206 | 0.979 | -0.061 | i | 22.0 | -1.8%
COc1ccc(-c2c(C)nn(Cc3ccccc3)c2N)cc1 | -7.6% | -0.87 | 1444 | 8.9 | 3.8 | 2.9 | 2.2 | 5.5 | . | -0.599 | -0.234 | -0.109 | 0.541 | i | 4.8 | -1.2%
CC(C)NC(=O)CC(=O)N/N=C/c1ccc(Br)cc1 | 1.1% | 0.1 | 1402 | -7.9 | -7.7 | 3.7 | 1.5 | 8.2 | . | 0.393 | -0.212 | 0.526 | 0.239 | i | 18.0 | 28.5%
N=c1c2c(-c3ccccc3)c(-c3ccccc3)n(Cc3ccccc3)c2ncn1CCCO | -4.3% | -0.73 | 710 | -6.2 | -11.1 | 3.6 | 2.6 | 1.1 | . | 2.59 | 2.28 | 1.33 | -6.07 | + | 9.4* | -0.2%

Following part:
SMILES | XIAP displacement | Ins promoter up | Ins promoter up cell count | WT yeast gro inh | WT yeast gro inh mutant strain | MT stabilize HCS | MT stabilize HCS Hoechst-high % | MT stabilize HCS cytotoxicity % | Lipid droplet | Dynein transport | Dynein transport cytoplasmic EGFP | Dynein transport nuclear GR-EGFP | Dynein transport cell count | Autophagy mod | Autophagy mod cell loss 18 h | ER stress rescue | others
O=C(OC1CCCCC1)c1ccc2c(c1)C1C=CCC1C(C(=O)O)N2 (centres undefined) | 7.2% | 0.17 | 1935 | 21.1 | 40.6 | 4.8 | 3.0 | 10.1 | -2.8 | -0.463 | -0.174 | -0.0123 | 0.418 | i | -4.3 | -1.8% | Lipid droplet cells 6.5 µM=629
CCN(CC)S(=O)(=O)c1ccc2c(c1)nc(CCC(=O)Nc1cccc(C(F)(F)F)c1)n2CC | -2.0% | -1.61 | 938 | -11.9 | -11.7 | 1.6 | 1.5 | 4.7 | . | -0.22 | -0.216 | -0.922 | -0.236 | i | -0.2 | 1.0%
CC(C)OC(=O)C(CC(=O)O)N1CCOCC1 (centres undefined) | -2.5% | -0.6 | 1540 | -1.3 | -2.3 | 2.9 | 1.2 | 4.9 | . | -0.547 | -0.229 | -0.5 | 0.514 | i | 7.2 | 1.2%
COC(=O)c1cccc(-n2[nH]nnc2=S)c1 | -6.6% | 2.83 | 1354 | -21.9 | 7.0 | 2.7 | 1.9 | 0.4 | . | 0.298 | 0.0644 | -0.425 | -1.78 | i | -0.3 | 0.2%
C/C(O)=c1/ccc2cccc3nc(C)nc1c23 | -5.6% | -0.03 | 1570 | 29.9 | 16.1 | 6.6 | 3.7 | 7.1 | . | -0.842 | 0.68 | -0.065 | 0.513 | i | -11.8 | -1.2%
COc1ccc(-c2cc(-c3c(O)c(OC)c4occc4c3OC)[nH]n2)cc1OC | -4.5% | -0.79 | 1457 | -1.0 | 10.4 | 2.5 | 1.2 | 4.2 | . | -0.64 | -0.221 | -0.442 | 0.492 | i | 0.1 | 0.8%
Cc1cc(=O)oc(C)c1C(=O)NCc1ccccn1 | 0.0% | -0.4 | 1496 | 3.4 | 1.3 | 1.6 | 1.6 | 9.3 | . | -0.453 | -0.0979 | -0.207 | 0.925 | i | -12.9 | -0.4%
CCOC(=O)Cc1csc(NC(=S)NC(=O)c2ccc(F)cc2)n1 | -7.7% | 1.38 | 1498 | 5.5 | -3.7 | 2.9 | 1.4 | 1.4 | . | -0.266 | -0.115 | 0.581 | 0.202 | i | -8.5 | -1.2%
Cc1ccc(C(=O)c2oc3nc(C)cc(C)c3c2N)cc1 | -1.5% | -1.17 | 1665 | 30.8 | 28.7 | 3.1 | 1.5 | 1.4 | . | i | . | . | -6.14 | i | -1.1 | -1.4%
CCCc1nnc(SCC(=O)N2CCCCC2C)n1CC1CCCO1 (centres undefined) | -4.5% | -0.06 | 1383 | 2.3 | 15.2 | 1.6 | 2.0 | 1.2 | . | 0.968 | -0.23 | -0.546 | -0.461 | i | -1.1 | -0.1%
CCOC(=O)CC(=O)Nc1ccccc1C(=O)O | -1.4% | -0.32 | 1664 | 11.5 | 9.5 | 3.2 | 2.6 | 5.7 | . | -0.797 | 0.885 | 0.0275 | -0.406 | i | 1.4 | -3.3%
COc1ccc(N(C)S(=O)(=O)c2c(C)[nH]c(=O)[nH]c2=O)cc1 | -0.3% | 0.43 | 1582 | 3.2 | -6.9 | 2.3 | 1.5 | 4.7 | . | 0.161 | 0.132 | -0.0631 | -0.0441 | i | 5.3 | 3.6%
O=C(NCCOc1nc(N2CCOCC2)nc(N2CCOCC2)n1)Nc1ccccc1 | -3.6% | 0.03 | 1445 | -10.8 | -7.8 | 2.4 | 1.2 | 4.6 | . | -0.665 | -0.0703 | -0.0704 | 0.101 | i | 0.4 | -0.6%
CCOC(=O)C1CCN(C(=O)c2cccnc2Cl)CC1 | -3.2% | 0.1 | 1634 | 11.8 | -4.2 | 4.0 | 2.2 | 5.3 | . | -0.207 | -0.214 | -0.919 | 1.04 | i | -4.1 | 2.3%
COc1ccc(S(=O)(=O)/N=C2/C=CC(=O)C(C)=C2C)cc1 | -2.9% | -0.07 | 1549 | 6.5 | 9.9 | 0.7 | 0.8 | 7.8 | . | -1.33 | -0.183 | -0.623 | 0.417 | i | 1.9 | -1.3%
CCC(C)(C(=O)NC1CCCC1)N(C(=O)c1ccccn1)c1ccccc1 (centres undefined) | -3.8% | 0.07 | 1570 | -13.3 | 4.0 | 5.0 | 4.0 | 10.9 | . | -1.3 | 0.147 | -0.28 | 0.558 | i | 10.1 | -2.2%
Cc1[nH]nc(-c2ccc(O)cc2O)c1-c1ccc(Cl)cc1 | 2.3% | -1.53 | 1507 | -6.7 | -6.3 | 3.6 | 3.3 | 3.8 | . | 0.266 | 0.267 | 0.256 | -0.553 | i | -15.6 | -0.5%
